# TRPV1 potentiator – potentiators of human vanilloid receptor 1 (TRPV1). Q8NER1. TRPV1-expressing cells, Fluo-8 calcium influx, capsaicin EC20 potentiation; host cell line not named in the record; control for the full effect not named in the record. 0.02% of 320,000 active. AID 540277. potentiation, % at 8.33 µM; active means potentiation above 80%; inconclusive means 30% to 80%; inactive means below 30%; note: 0% is about no effect
# Target sequence (Q8NER1 whole entry, looked up): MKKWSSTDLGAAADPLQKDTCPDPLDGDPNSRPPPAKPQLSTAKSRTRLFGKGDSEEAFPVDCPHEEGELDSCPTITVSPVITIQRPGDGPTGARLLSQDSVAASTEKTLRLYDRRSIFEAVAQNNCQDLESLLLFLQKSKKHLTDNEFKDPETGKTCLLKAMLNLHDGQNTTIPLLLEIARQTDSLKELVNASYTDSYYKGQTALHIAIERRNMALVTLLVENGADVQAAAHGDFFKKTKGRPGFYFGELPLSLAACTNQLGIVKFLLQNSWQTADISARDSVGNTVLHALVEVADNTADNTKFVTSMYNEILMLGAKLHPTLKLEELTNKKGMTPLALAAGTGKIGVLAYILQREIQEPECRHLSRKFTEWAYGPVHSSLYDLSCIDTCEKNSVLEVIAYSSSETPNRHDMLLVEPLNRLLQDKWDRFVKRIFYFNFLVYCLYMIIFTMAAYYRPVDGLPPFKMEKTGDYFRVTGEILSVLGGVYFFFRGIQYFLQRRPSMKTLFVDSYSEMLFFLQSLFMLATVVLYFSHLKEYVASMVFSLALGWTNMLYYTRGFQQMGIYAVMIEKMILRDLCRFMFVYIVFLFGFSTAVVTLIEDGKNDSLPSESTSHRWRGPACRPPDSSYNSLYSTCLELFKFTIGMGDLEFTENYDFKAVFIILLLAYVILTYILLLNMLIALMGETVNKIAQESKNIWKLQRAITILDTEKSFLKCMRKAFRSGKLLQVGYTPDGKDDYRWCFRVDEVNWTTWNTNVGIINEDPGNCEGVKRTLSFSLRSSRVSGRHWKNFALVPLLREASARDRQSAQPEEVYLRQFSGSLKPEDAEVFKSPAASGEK
#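 Fluo-8 calcium influx in TRPV1-expressing cells, kinetic read (ex 480/em 520 nm). Compound added and read 3 min for agonist activity, followed by capsaicin at EC20 final and 2 min further read for enhancement.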
# ClpP mod – qHTS Assay for Activators of ClpP | purified B. subtilis ClpP, FRET peptide cleavage, 20 min | Potency, µM (top dose mostly 57.5 µM), inactives show top-dose activity change, negative = active | 1.9% of 340,000 active | AID 651965, 2013; active = well fitted falling curve with a large enough effect; inconclusive = small, poorly fitted or top-dose-only effect; inactive = no such curve, though single readings can be large or run the other way; note: potency is the fitted concentration of half-maximal effect; the source files actives as falling curves though it sought activators and does not explain the sign; nearly all actives have a fitted effect of over 65% in size; many hits overshoot -100%
# Target sequence (P80244 whole entry, looked up): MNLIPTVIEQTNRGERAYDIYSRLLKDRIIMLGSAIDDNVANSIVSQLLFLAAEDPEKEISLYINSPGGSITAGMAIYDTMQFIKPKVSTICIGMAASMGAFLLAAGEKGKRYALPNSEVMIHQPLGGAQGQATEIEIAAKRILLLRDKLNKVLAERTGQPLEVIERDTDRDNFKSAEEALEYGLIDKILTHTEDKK
#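 FRET quenching reversal measured ClpP activation: 10 microg/mL B. subtilis ClpP at pH 8 with the FRET-FV decapeptide, read at 430 nm after 320 nm excitation. The 20-min minus 0-min signal was scaled between DMSO/no-enzyme wells and ADEP (5.8 microM final).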
# gsp antagonist – antagonizes gsp, the McCune-Albright syndrome mutation. gsp-mutant cells, cAMP HTRF, 30 min; control for the full effect not named in the record. Potency, µM (doses to about 76.9 µM), for the others: at the top dose activity change, negative = inhibition, hits mostly inhibitors. 0.4% of 340,000 active; active = falling curve of any shape with a large fitted effect; inconclusive = falling curve, mostly with a smaller effect; inactive = flat or rising curve; cell line not stated here;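 note: intracellular cAMP measured with PDE inhibitor Ro 20-1724 present during compound exposure; potency is the fitted concentration of half-maximal effect; % is set by controls: 0 for no effect and ±100 for the full control effect; nearly all actives have a fitted effect of over 65% in size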
#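 Measurement of cellular cAMP by homogeneous time-resolved fluorescence following a 30 min compound exposure at 37C. The PDE inhibitor […] was present throughout; the assay buffer was DPBS with 0.05% BSA and 0.005% Tween 20.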
# gsp agonist – activates gsp, the McCune-Albright syndrome mutation; gsp mutant cells, cAMP HTRF, 30 min; control for the full effect not named in the record; Potency, µM (doses to about 76.9 µM), for inactives: at the top dose activation (cAMP increase), most hits filed as activators; 0.13% of 340,000 active; AID 624287; active = well fitted activation curve with a large enough effect; inconclusive = small, poorly fitted or top-dose-only effect, or another doubt; inactive = no such curve, though single readings can be large or run the other way; cell line not stated here;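 note: phosphodiesterase inhibitor Ro 20-1724 added with compounds to block cAMP breakdown; potency is the fitted concentration of half-maximal effect; nearly all actives have a fitted effect of over 60% in size; about a fifth of the inactives were tested at one dose only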
#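 Cells stably selected in G418 were plated at 2000/well, grown 16-24 hr, then given compounds in DMSO with the PDE inhibitor […] (300 uM solution added) for 30 min at 37C; cAMP was read by HTRF.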
# D2 PAM – potentiates the human D2 dopamine receptor allosterically. P14416. DiscoveRx D2 beta-arrestin cells, luminescence, 90 min; 100% = 57 uM dopamine signal. potentiation, % (concentration not given with the values). 0.23% of 360,000 active. AID 624464; active = potentiation of 50% or more; inconclusive = 30% to 50%; inactive = 30% or less;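 note: compound concentration not given in the record; tested on top of an EC20 dose of dopamine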
#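 D2 cells co-treated with compound plus 50 nM dopamine (EC20) for 90 min at 37 deg C to detect potentiation. Beta-arrestin recruitment was read as enzyme-fragment luminescence after 1 h at ambient temperature. Full response was set by 57 uM dopamine.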
# Menin MLL FP FL – displaces fluorescein MLL peptide from human menin. Fluorescence polarization, fluorescein-MLL peptide displacement from menin. FP activity change, % at 61.4 µM. 290,000 tested, under 10 active; inconclusive = falling polarisation curve, or a change in total fluorescence; inactive = total fluorescence flat and polarisation flat or rising; no compound was filed as active; the % refers to the polarisation; negative = inhibition;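 note: % of control where 0% means no effect; inhibitors lower the polarisation; unlabelled MLL peptide was the positive control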
# Sfp PPTase inh – blocks B. subtilis Sfp PPTase activity; AID 1490; 3.5% of 310,000 active; Biochemical Sfp PPTase activity, qHTS; Potency, µM, without a hit: max response, negative = inhibition, actives largely listed as inhibitors; active = well fitted inhibition curve with a large enough effect; inconclusive = small, poorly fitted or top-dose-only effect, or another doubt; inactive = no such curve, though single readings can be large or run the other way;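 note: the enzyme is Sfp with the accession as filed and its product quenches rhodamine fluorescence; potency is the fitted concentration of half-maximal effect; 0% = enzyme reaction without inhibitor and -100% = no enzyme wells; top concentration of the series not given in the record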
#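 Fluorescence-quenching assay with 15 nM Sfp, 5 uM rhodamine-CoA and 12.5 uM BHQ-2-labelled ybbR peptide in pH 7.6 Hepes/MgCl2 buffer. Enzyme was pre-incubated with compound for 15 min at room temperature. Rate was taken from the 30-min fluorescence change (525/598 nm).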
# Starred values were filed as active, the others as inactive; ? = inconclusive; / = no result given; & = joins results of further samples; [ ] = remark or other dose.
SMILES,TRPV1 potentiator,ClpP mod,gsp antagonist,gsp agonist,D2 PAM,Menin MLL FP FL,Sfp PPTase inh
Cc1ccc(C)c(NC(=O)CN(C)C(=O)c2ccccc2Cc2ccccc2)c1,11,0.6%,-16%,-10%[15.4 µM],-41,/,/
CCOC(=O)C1CCCN(C(=O)Cc2c(C(=O)O)[nH]c3ccccc23)C1 (stereo unspecified),-7,?,7%,-1%,3,-5.4,17%
Cc1nc2ccccc2c(=O)n1NC(=O)COc1ccccc1,-9,-1.2%,3%,-13%,-4,3.3,2%
COc1ccc(CCNS(=O)(=O)c2ccc(OC)cc2)cc1,3,0.5%,3%,7%,-8,-0.7,14%
CCCCC(=O)Nc1nc(C)c(-c2csc(Nc3ccccc3OC)n2)s1,1,-5.3%,-1%,/,2,4.4,-4%
CS(=O)(=O)N1CCCC(C(=O)NCc2ccc(F)cc2Cl)C1 (stereo unspecified),13,-0.1%,-4%,-19%,-6,2.1,4%
Cc1ccc(NC(=O)Nc2ccc3c(c2)N(C)C(=O)CS3)cc1C,3,0.1%,-29%,-24%,-10,?,-7%
O=C(O)C1C2C=CC(C2)C1C(=O)NC(c1ccccc1)c1ccccc1 (stereo unspecified),-3,0.6%,-15%,-19%,-5,-1.4,1%
C[C@@H]1CC=C[C@@H]2[C@H]1C(=O)N(Cc1ccccc1)[C@H]2c1cccc(C#Cc2ccccc2)c1,/,-19%,-5%,/,-4,-0.7,-8%
CCC(c1nnc(SCC(=O)Nc2ccc(NC(C)=O)cc2)n1Cc1ccccc1)N(C)C (stereo unspecified),2,0.9%,7%,0%[15.4 µM],-14,/,10%
Cc1ccc(S(=O)(=O)N2CCOCC2)cc1C(=O)N1CCN(Cc2ccccc2)CC1,-20,1.0%,14%,10%[15.4 µM],-12,/,/
Cc1ccccc1NC(=S)Nc1ccccc1,5,1.6%,9%,14%[15.4 µM],1,-3.1,9%
O=C(CN1CCN(S(=O)(=O)c2ccc(Br)cc2)CC1)N/N=C/c1ccco1,-22,-2.0%,0%,-19%,20,0.0,7%
C=CCc1c(OC)ccc2c1c(S(=O)(=O)c1ccc(C)cc1)cn2COC,-14,-1.1%,-32%,4%[15.4 µM],-9,-1.1,4%
CC(CN1CCCC1)OC(=O)c1ccc(F)cc1 (stereo unspecified),0,0.0%,10%,-1%[15.4 µM],-17,2.1,2%
CN(C)c1ccc(C(=O)C(O)c2ccccc2Cl)cc1 (stereo unspecified),/,/,-9%,?,-8,/,/
COc1cc(Cl)c(S(=O)(=O)NCCCN2CCOCC2)cc1Cl,4,4.2%,6%,9%,-12,1.7,4%
CCCCOc1ccc(/C=c2\sc3ncnn3c2=O)cc1,29,1.6%,7%,-5%,-10,0.2,5%
Cc1ccc(C(=O)Nc2nnc(NC(=S)Nc3ccccc3)s2)cc1,0,-0.8%,-31%,-8%[15.4 µM],-9,4.6,-2%
O=C1CC(c2ccccc2)Sc2nc3ccccc3n21 (stereo unspecified),1,/,-18%,-9%[15.4 µM],5,-5.2,9%
O=C1c2cccc([N+](=O)[O-])c2C(=O)N1C1CCCCC1,5,0.0%,-17%,-35%[inhibitor],4,-0.5,5%
CCOC(=O)c1c(C)[nH]c(C(=O)OCC(=O)N2c3ccccc3CC2C)c1C (stereo unspecified),-7,3.9%,-19%,21%,-9,0.5,-3%
O=C(Oc1ccc(-c2cnc3ccccc3n2)cc1)c1ccc(Cl)c([N+](=O)[O-])c1,5,-2.2%,-3%,?,-13,2.7,3%
Cc1cccc(C(=O)NNC(=O)CSc2nnc(C3CC3)n2C)c1,6,/,8%,15%,-2,/,10%
CC(C)COc1ccc(C(=O)NCc2ccco2)cc1,-2,-0.3%,-8%,-1%,16,4.2,3%
CN(c1ccc(F)cc1)S(=O)(=O)c1ccc(Cl)c(C(=O)OCC(=O)NC2CC2)c1,/,0.3%,-10%,20%,1,/,/
O=C1CC(NCc2ccc3c(c2)OCO3)C(=O)N1CCc1ccccc1 (stereo unspecified),/,-1.6%,6%,-15%,-9,7.6,-10%
COC(=O)c1ccccc1NC(=S)N(Cc1ccc2c(c1)OCO2)Cc1cc2ccc(OC)cc2[nH]c1=O,11,1.2%,-12%,3%,-24,0.2,-2%
CSc1nsc(SC)c1C(=O)Nc1ccc(Cl)cc1,2,-2.0%,-8%,6%,-25,1.8,14%
O=C(NC(=S)Nc1ncc(Br)cc1Br)c1ccccc1,-19,/,?,-10%[15.4 µM],1,-0.1,10%
CC(C)(C)c1cc(NCCCn2ccnc2)n2ncc(-c3ccc(Cl)cc3)c2n1,7,14µM*,10%,?,27,3.2,-23%
COc1ccc(C(CNC(=O)c2ccc(S(=O)(=O)Nc3cccc(C)c3C)cc2)N2CCOCC2)cc1 (stereo unspecified),/,-0.1%,-12%,-25%,-3,/,/
O=C(/C=C/c1cccs1)c1ccc([N+](=O)[O-])cc1,-24,/,7%,-3%[15.4 µM],0,0.4,-2%
O=C(CN1CCC(Cc2ccccc2)CC1)NC(=O)NC1CCCCC1,-10,2.1%,7%,?,-21,-8.5,19%
CN(C)c1ccc(C2=NOC(CN3C(=O)c4ccccc4S3(=O)=O)C2)cc1 (stereo unspecified),?,2.3%,?,13%,21,2.6,3%
O=C(NNC(=O)C1CCCCC1)c1ccc(Br)cc1,7,0.1%,4%,-2%,-6,1.7,-3%
CCOC(=O)c1c(C)nc(C)c(C(=O)OCC)c1-c1ccc(OC)cc1,-16&1,-1.7%,-6%,2%,4,-3.8&-1.1,7%&10%
O=C(Nc1ccc(S(=O)(=O)N2CCCC2)cc1)C1CC(=O)N(CCc2ccccc2)C1 (stereo unspecified),/,-0.8%,/,?,-12,/,/
O=C1CCC(=O)N1CN(C(=O)c1ccco1)c1ccccc1,-16,-0.3%,6%,0%,6,-0.7,16%
O=C(c1cccc(S(=O)(=O)N2CCCCC2)c1)N1CCc2ccccc21,-3,0.4%,-9%,-7%,-17,8.6,-21%
COc1ccc(/C=C(\C#N)c2nc3ccc(C)cc3[nH]2)cc1Oc1ccc(C(F)(F)F)cc1[N+](=O)[O-],-17,-0.5%,15%,-2%,-2,-0.3,-7%
CC(C)C(=O)Nc1ccc(Nc2ccccc2)cc1,12,-1.0%,-8%,-4%,19,-0.4,14%
CCOC(=O)C1=NN(c2ccccc2)C2=NC(C)=C(C(=O)OC)C(c3ccc(C)cc3)N12 (stereo unspecified),6,-1.7%,-10%,-14%,-5,3.3,-3%
Cc1ccccc1CC1(CO)CCCN(Cc2ccccc2Cl)C1 (stereo unspecified),-11,-1.1%,-7%,2%[15.4 µM],-8,4.8,20%
O=[N+]([O-])c1cccc(S(=O)(=O)N/N=C\c2ccc3c(c2)OCO3)c1,4,-1.5%,-12%,-34%[inhibitor],-17,1.8,-1%
O=C(O)Cn1cc(C(=O)C2CC2)c2ccccc21,4,-2.4%,16%,25%,7,-0.2,11%
C#CCNC(=O)C1=C[C@H](c2ccc(Br)cc2)[C@@H](CCCO)[C@H](OCC)O1,24,2.3%,-16%,-65%[inhibitor],7,2.3,-2%
O=C(NCCCCNC(=O)c1cccnc1Cl)c1cccnc1Cl,-2,0.3%,20%,3%,-6,/,11%
CCN(C(=O)CSc1nnnn1-c1ccc(Cl)cc1)C1CCS(=O)(=O)C1 (stereo unspecified),/,-15%,5%,-21%[15.4 µM],3,/,/
CC1(C)C(=O)Nc2ccccc2N1C(=O)COC(=O)Cn1cnc2ccccc2c1=O,14,-1.2%,1%,?,-13,-1.7,11%
# Additional compounds follow.
SMILES,TRPV1 potentiator,ClpP mod,gsp antagonist,gsp agonist,D2 PAM,Menin MLL FP FL,Sfp PPTase inh
CC1(C)Oc2ccc(C(=O)NC3CC3)cc2N(CC(=O)N2CCOCC2)C1=O,9,1.6%,10%,-27%,-2,-0.9,2%
O=C(Cc1c(F)cccc1Cl)Nc1ccon1,3,-0.4%,8%,-1%,-2,5.4,16%
COc1ccc(Br)cc1/C=N/NC(=O)c1nc(-c2ccccc2)n2c1CCCCC2,14,1.7%,?,3%,-23,-2.0,-6%
COCCNC(=O)C1Cc2c(ccc3ccccc23)O1 (stereo unspecified),9,1.1%,8%,4%[15.4 µM],-5,1.0,-24%
COCCn1c(SCC(=O)NCCc2ccc(OC)c(OC)c2)nc2c([nH]c3ccccc32)c1=O,0,/,-11%,-12%[15.4 µM],-1,-1.2,-3%
O=C(NCCN1C(=O)S/C(=C\c2cccnc2)C1=O)c1cc(S(=O)(=O)N2CCOCC2)ccc1F,-12,-4.0%,-11%,28%,-14,6.6,-17%
CC(O)(c1ccccc1)C(C(c1ccccc1)N1CCOCC1)N1CCOCC1 (stereo unspecified),/,-1.8%,-4%,37%[15.4 µM],-11,/,/
O=C(Nc1nccs1)c1cc2cc(Cl)ccc2oc1=O,-3,-3.4%,5%,-60%[inhibitor],-8,?,10%
CC(=O)c1ccc(NS(=O)(=O)c2ccc3ccccc3c2)cc1,24,-3.7%,-6%,5%,-14,/,27%
CCC(=O)N1CCc2cc(S(=O)(=O)CCC(=O)N(C)c3ccc(OC)cc3)ccc21,10,-0.6%&-2.0%,-14%,?,-5,6.8,13%
COc1cccc(OCCn2ccnc2)c1,-2,0.4%,6%,-4%,-3,-1.1,2%
O=[N+]([O-])c1cccc(/C=N/n2c(-c3cccnc3)n[nH]c2=S)c1,-6,1.0%,-19%,0%[15.4 µM],-14,/,?
COc1ccc(NC2=C(Cl)C(=O)N(c3ccccc3)C2=O)c(OC)c1,29,1.0%,?,-16%,-1,-3.6,16%
O=C(Cn1cnc2c(NCc3ccccc3)ncnc21)NCCCN1CCCC1=O,/,2.3%,9%,/,-3,/,/
O=C(NCCc1ccc(Cl)cc1)C1COc2ccccc2O1 (stereo unspecified),-9,/,-9%,28%,5,5.0,6%
COc1cccc(NC(=O)CN(C)C(C)C(=O)N2CCCCC2)c1 (stereo unspecified),/,/,6%,13%,-6,/,/
O=c1oc(-c2cccs2)nc2ccccc12,3,-0.8%,-17%,-35%[inhibitor],-12,0.1,10%

# Outcome played no part in choosing rows; any-hit rate near 5.1%.
